High-throughput results (PubChem)
miR-21 FLuc: raises the signal of a miR-21 reporter; HeLa miR-21 FLuc reporter, luciferase, 48 h; AID 2288; 340,000 tested, under 10 active; Potency, µM (titrated, usually from 38.3 µM), for inactives: top-dose reporter change, positive = more light; active = well fitted rising curve with a large enough effect; inconclusive = small, poorly fitted or top-dose-only effect; inactive = no such curve, though single readings can be large or run the other way;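 note: % of control where 0% means no effect; miR-21 action dims this reporter so a rising signal means less miR-21 action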
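HeLa miR-21-FLuc reporter line, endogenous miR-21; 2000 cells/well in DMEM/10% FBS; compound titration up to ~40uM final, 48 h, 37 degree Celsius; luciferase detection reagent, 15 min lysis, CCD luminescence.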
* = called active by the depositor; ? = inconclusive. Not all compounds are listed; the hit share may differ from the screen's.

no.	Compound	miR-21 FLuc
1	COc1ccc(NC(=O)Cn2c(=O)c(-c3cc(C)ccc3NC(C)=O)nc3ccccc32)c(OC)c1	-2%
2	CCC(=O)N1CCc2cc(CNC(=O)Nc3ccccc3Cl)ccc21	-29%
3	Cc1ccc2c(CN3CCN(C(=O)c4ccc(Br)cc4)CC3)cc(=O)oc2c1	-13%
4	CCOC(=O)c1ccc(NC(=O)c2c(NC(C)=O)sc3c2CCC(C)C3)cc1 (stereo not given)	-9%
5	Cc1ccc2c(c1)N(CC(=O)NCc1cccc(Cl)c1)C(=O)c1cccnc1O2	12%
6	CCOC(=O)c1cccc(NS(=O)(=O)c2c(C)nc3sc(C)cn3c2=O)c1	4%
7	COc1cccc(CNC(=O)c2nn(C)c3c2CSc2ccccc2-3)c1	1%
8	COc1ccc(-n2nc(C(=O)Nc3cccc(C)n3)c3c4ccccc4n(C)c3c2=O)cc1Cl	0%
9	CCCCNC(=O)CSc1nc(-c2ccc(OC)cc2)cc(C(F)(F)F)n1	0%
10	CCOc1ccc(NC(=O)c2cc(=O)c3ccc(C)c(C)c3o2)cc1	-6%
11	CC(Oc1ccccc1)C(=O)Nc1ccc(C(=O)OCc2cc(=O)n3ccsc3n2)cc1 (stereo not given)	26%
12	Cc1ccc(NC(=O)c2ccco2)c(OCc2cc(=O)n3cc(C)sc3n2)c1	2%
13	Cc1ccc(N(Cc2cccs2)C(=O)COc2cccc(C)c2)cc1	-3%
14	CC1CCc2c(sc3nc(-c4cc5cc(Br)ccc5oc4=O)[nH]c(=O)c23)C1 (stereo not given)	-9%
15	O=C1CN(C(=O)COc2ccc(Cl)cc2Cl)C(c2ccc(F)cc2)c2cc(F)ccc2N1 (stereo not given)	?

In the list so far, 8 have sulfur:
no.	Compound	miR-21 FLuc
4	CCOC(=O)c1ccc(NC(=O)c2c(NC(C)=O)sc3c2CCC(C)C3)cc1 (stereo not given)	-9%
6	CCOC(=O)c1cccc(NS(=O)(=O)c2c(C)nc3sc(C)cn3c2=O)c1	4%
7	COc1cccc(CNC(=O)c2nn(C)c3c2CSc2ccccc2-3)c1	1%
9	CCCCNC(=O)CSc1nc(-c2ccc(OC)cc2)cc(C(F)(F)F)n1	0%
11	CC(Oc1ccccc1)C(=O)Nc1ccc(C(=O)OCc2cc(=O)n3ccsc3n2)cc1 (stereo not given)	26%
12	Cc1ccc(NC(=O)c2ccco2)c(OCc2cc(=O)n3cc(C)sc3n2)c1	2%
13	Cc1ccc(N(Cc2cccs2)C(=O)COc2cccc(C)c2)cc1	-3%
14	CC1CCc2c(sc3nc(-c4cc5cc(Br)ccc5oc4=O)[nH]c(=O)c23)C1 (stereo not given)	-9%

The listing picks up with the 3 entries that preceded the break.
no.	Compound	miR-21 FLuc
13	Cc1ccc(N(Cc2cccs2)C(=O)COc2cccc(C)c2)cc1	-3%
14	CC1CCc2c(sc3nc(-c4cc5cc(Br)ccc5oc4=O)[nH]c(=O)c23)C1 (stereo not given)	-9%
15	O=C1CN(C(=O)COc2ccc(Cl)cc2Cl)C(c2ccc(F)cc2)c2cc(F)ccc2N1 (stereo not given)	?
16	Cc1ccc(N2CC(NC(=O)c3ccccc3Br)CC2=O)cc1 (stereo not given)	-1%
17	Cc1ccc(-c2nnc3c4ccccc4c(C)nn23)cc1NC(=O)c1ccccc1Cl	-7%
18	CC(=O)N1CCc2nc3sc(C(=O)c4ccc(F)cc4)c(N)c3c(C(F)(F)F)c2C1	26%
19	CCOc1ccccc1CNC(=O)C1=C(C)C(=O)OC12CCN(C(C)=O)CC2	-4%
20	COc1cc2c(=O)c(S(=O)(=O)c3ccc(C(C)C)cc3)cn(Cc3ccccc3C)c2cc1OC	12%
21	Cc1ccc(-c2ccc(=O)n(CC(=O)Nc3ccc(C)cc3Cl)n2)cc1	-3%
22	CCOC(=O)c1c(NC(=O)c2cc(-c3ccccc3OC)on2)sc(C)c1C	2%
23	CCCn1ccc2c(OCC(=O)Nc3ccc(C(F)(F)F)cc3)cccc2c1=O	0%
24	COC(=O)c1c(NC(=O)/C(C#N)=C/c2ccc(OC)cc2)sc2c1C(C(=O)OC)CC2 (stereo not given)	0%
25	CC(C)COc1ccc(C(=O)Nc2scc(-c3ccc(Br)cc3)c2C(=O)OC(C)C)cc1	-2%
26	CCOC(=O)Cn1c(=O)oc2cc(S(=O)(=O)N3CCN(c4ccccc4OC)CC3)ccc21	-2%
27	COc1ccc(-c2noc(N3CCC(C(=O)Nc4ccc(C)c(F)c4)CC3)n2)cc1OC	-12%
28	Cn1c(C(=O)NCc2ccc(Cl)cc2)cc2c(=O)n(C)c3ccccc3c21	0%
29	CCOc1ccccc1NC(=O)C(=O)NCCc1sc2nc(-c3ccc(OC)cc3)nn2c1C	-43%
30	Cc1ccc(-n2ncc(C(=O)NCc3ccc4c(c3)OCO4)c2C2CCN(C(=O)OC(C)(C)C)CC2)cc1C	?
31	CCN(c1cccc(C)c1)S(=O)(=O)c1nnc(NC(=O)c2cccs2)s1	-7%
32	COc1ccc(OC)c(CNC(=O)C2CCCCN2S(=O)(=O)c2ccc(F)cc2)c1 (stereo not given)	0%
33	CCOCCCNC(=O)Cn1nc(C)n2c(cc3cc(C)ccc32)c1=O	-3%
34	Cc1ccc(Cl)cc1N1CCN(S(=O)(=O)c2ccc(-c3cnc(C4CC4)o3)cc2)CC1	20%
35	CCOCCCNC(=O)C(c1ccc(OC)cc1)N(Cc1ccc2c(c1)OCO2)C(=O)c1ccc(NC(C)=O)cc1 (stereo not given)	14%
36	CC(=O)Nc1cc(-c2nc3ccccc3s2)ccc1C	-52%
37	CCOC(=O)c1c(NC(=O)c2cc3nc(-c4ccccc4)cc(C(F)(F)F)n3n2)sc2c1CCC(C)C2 (stereo not given)	-1%
38	Cc1cc(NC(=O)C2CCCN(S(=O)(=O)c3cccc4nonc34)C2)ccc1Br (stereo not given)	-3%
39	COc1ccc(F)cc1S(=O)(=O)NCCc1c(C)[nH]c2c(Cl)cccc12	19%
40	Cc1oc(-c2ccccc2F)nc1CSCC(=O)NCCc1ccccc1	?
41	COc1cccc(Cc2nc3ccccc3nc2SCC(=O)Nc2cc(OC)ccc2OC)c1	0%
42	COc1ccc(S(=O)(=O)c2cn(CC(=O)Nc3cc(C)ccc3C)c3ccccc3c2=O)cc1	2%
43	CC1CCN(S(=O)(=O)c2nnc(NC(=O)c3cccc(F)c3)s2)CC1	-4%
44	CC(NC(=O)C1CCN(C(=O)N2CCOc3ccccc32)CC1)c1ccccc1 (stereo not given)	-19%
45	N#Cc1nc(-c2ccc(COc3ccc(Cl)cc3)o2)oc1N1CCC(C(N)=O)CC1	26%
46	COc1cccc(NC(=O)c2nnn(Cc3cccc(C(F)(F)F)c3)c2N)c1	16%
47	COc1ccccc1CCNC(=O)C(C)Sc1nc(-c2ccccc2)cc(C(F)(F)F)n1 (stereo not given)	0%
48	Cc1ccc2onc(CNC(=O)Nc3ccccc3C#N)c2c1	-4%
49	COc1ccccc1CNC(=O)C(Cc1ccccc1)NS(=O)(=O)c1ccc2c(c1)CCN2C(C)=O (stereo not given)	1%
50	CCCCC(=O)Nc1nnc(S(=O)(=O)N(C)Cc2ccccc2)s1	0%
51	COCCCNC(=O)CSc1nc2c(sc3ccccc32)c(=O)n1CCc1ccc(OC)c(OC)c1	0%
52	Cc1ccc(NS(=O)(=O)c2c(C(=O)N3CCCCCC3)c(C)n(C)c2C)cc1F	-8%
53	Cc1ccc(-c2nnc(Nc3cccc(Br)c3)c3ccccc23)cc1S(=O)(=O)N1CCCCC1	-3%
54	N#CC1=C2SCN(C3CCCCC3)CN2C(=O)CC1c1ccc(F)cc1 (stereo not given)	-1%
55	O=C(CCOc1ccccc1)N(Cc1cccnc1)c1nc2c(Cl)cccc2s1	7%
56	Cc1ccc(NC(=O)Cn2cc3c(n2)CCCC3)c(C)c1	-10%
57	CCOc1ccccc1NC(=O)N1CCC(n2c(C)nc3cccnc32)CC1	-13%
58	CCN(CC)S(=O)(=O)c1nnc(NC(=O)COc2ccccc2)s1	-36%
59	O=C(Cn1c(=O)n(Cc2ccc3c(c2)OCO3)c(=O)c2oc3ccccc3c21)Nc1ccccc1	-7%
60	Cc1ccc(NC(=O)c2cnc(N3CCCC3)nc2C)cc1F	-14%
61	COc1cc(NC(=O)Cn2c(=O)oc3cc(S(=O)(=O)N4CCCCCC4)ccc32)cc(OC)c1	3%
62	COc1ccc(NC(=O)CN2CCN(c3ccccc3F)CC2)c(OC)c1	-3%
63	CCOC(=O)c1c(Nc2ccc(C)c(C)c2)nnc(-c2ccccc2)c1-c1ccccc1	24%
64	COc1ccc(NC(=O)CSc2cn(CC(=O)N3CCOCC3)c3ccccc23)cc1OC	-4%
65	COc1cccc(CNC(=O)Cn2cc3c(n2)-c2c(oc(C(=O)N4CCCC4)c2C)CC3)c1	15%
66	CCc1nn(Cc2ccc(Cl)cc2)c(=O)c2cc3cc(C)ccc3n12	-1%
67	Cc1ccc(OCC(=O)OCc2cc(=O)n3nc(C4CC4)sc3n2)cc1	-2%
68	Cc1ccc2nc(NC(=O)c3ccc(S(=O)(=O)N4CCC(C)CC4)cc3)sc2c1	0%
69	CCOC(=O)c1noc2ncnc(N3CCN(c4cccc(C(F)(F)F)c4)CC3)c12	24%
70	COc1cc(/C=C/c2nc3cc(Cl)ccc3c(=O)n2-c2ccc(C)cc2C)cc(OC)c1OC	-1%
71	Cc1cccc(NC(=O)c2oc3ccccc3c2NC(=O)Cc2coc3c(C)c(C)ccc23)c1	-18%
72	Cc1ccc(-n2nc(C(=O)N3CCN(c4cc(C)ccc4C)CC3)c3c4ccccc4n(C)c3c2=O)cc1	-1%
73	CCOc1ccc(C2C(=O)N(C3CCCCC3)CC(=O)N2Cc2ccccc2OC)cc1OC (stereo not given)	-6%
74	COc1ccc(NC(=O)C2CCCN(S(=O)(=O)c3ccc(Br)s3)C2)cc1 (stereo not given)	1%
75	O=C(Nc1ccccc1-c1nc2ccccc2s1)c1ccc(F)cc1	0%

Continued:
no.	Compound	miR-21 FLuc
76	O=C(Cn1c(=O)oc2cc(S(=O)(=O)NCc3ccccc3)ccc21)NCc1ccc(F)cc1	21%
77	Cc1nc2cccnc2n1C1CCN(C(=O)Nc2ccccc2)CC1	-4%
78	CCCCn1c(CNC(=O)C23CC4CC(CC(C4)C2)C3)nnc1SCC(=O)Nc1ccc(F)cc1	9%
79	CCOc1ccccc1NC(=O)Cn1c(=O)n(CCCCC(=O)NCCCOC)c(=O)c2ccccc21	-4%
80	Cc1cccc(NC(=O)CN(C)S(=O)(=O)c2cnc[nH]2)c1C	-2%
81	CCOC(=O)Cn1c(=O)oc2cc(S(=O)(=O)N3CCN(c4ccc(C(C)=O)cc4)CC3)ccc21	-1%
82	Cc1c(Cl)cccc1NC(=O)CC(c1cccs1)N1Cc2ccccc2C1=O (stereo not given)	?
83	COC(=O)c1nc2n(n1)C(c1cc(OC)ccc1OC)C=C(c1ccc(Br)cc1)N2 (stereo not given)	17%
84	COc1ccc(C)cc1NS(=O)(=O)c1cnc(N)nc1	0%
85	CCOc1ccc(C(=O)NCCS(=O)(=O)N2CCN(c3cccc(Cl)c3)CC2)cc1	-1%
86	CCOc1cc(CNC(=O)c2ccc(Cn3c(=O)c4cccn4c4cccnc43)cc2)ccc1OC	0%
87	CC(=O)N1c2ccc(S(=O)(=O)NCC3CCC(C(=O)Nc4cccc(C)c4)CC3)cc2CC1C (stereo not given)	13%
88	CC(C)COc1ccc(-c2nonc2NC(=O)c2ccc(F)cc2)cc1	5%
89	Cc1nc2c(c(C)c1CCC(=O)Nc1ccc(F)cc1)c(=O)n(C)c(=O)n2C	0%
90	CCc1ccccc1NC(=O)CCCN1C(=O)COc2ccc(C)cc21	2%
91	CCCC12CN3CC(CCC)(CN(C1)C3c1c[nH]c3ccccc13)C2=O (stereo not given)	7%
92	Cc1ccc(NC(=O)CSc2nc(=O)n(CCN3CCOCC3)c3c2CCC3)cc1Cl	4%
93	CCCN1CCN(c2nnc(-n3cccc3C(=O)Nc3cc(Cl)ccc3C)s2)CC1	-8%
94	CSc1ccc(C2CC(=O)Oc3c2c(=O)n(C)c2ccccc32)cc1 (stereo not given)	11%
95	COc1ccc(C(=O)NCCn2cc(SCC(=O)Nc3ccc4c(c3)OCCO4)c3ccccc32)cc1OC	19%
96	CCCCN(C)c1nnc(NC(=O)Nc2cccc(C(C)=O)c2)s1	-2%
97	Cc1ccc(N2C(=O)CS(=O)(=O)C23C(=O)N(Cc2ccccc2F)c2ccccc23)cc1Cl (stereo not given)	-2%
98	Cc1ccc2c(c1)N(C(=O)CCC(=O)NCc1cccs1)CCO2	-16%
99	CCOC(=O)c1c(Nc2ccc(OC)cc2)nnc(-c2ccccc2)c1-c1ccccc1	?
100	Cc1ccc(NC(=O)c2nc(-c3ccncc3)no2)c(Cl)c1	-5%
101	CCC(=O)N1c2ccc(S(=O)(=O)CCC(=O)N3CCN(c4cc(C)ccc4C)CC3)cc2CC1C (stereo not given)	9%
102	CCN(CC)c1nn2c(=O)c(C(=O)NCc3cccc(C)c3)cnc2s1	-7%
103	CCCCNC(=O)CN1CCN(c2ncc(NC(=O)c3ccc(Cl)cc3)cc2C(=O)O)CC1	-3%
104	Cc1ccc(-c2onc(C)c2C)cc1S(=O)(=O)N1CCOc2ccc(Cl)cc21	19%
105	Cc1cccc(OCc2nc(CC(=O)Nc3ccc(Cl)cc3)cs2)c1	-11%
106	COC(=O)C1=C(C)NC(=O)NC1c1cn(-c2ccccc2)nc1-c1ccc(OC)c(Br)c1 (stereo not given)	0%
107	COc1ccc(Nc2sc(C(=O)c3ccccc3)c(N)c2C(=O)Nc2cc(C)ccc2C)c(OC)c1	30%
